GLA inh pH 4.5: qHTS Assay for Inhibitors of Human alpha-Galactosidase at pH 4.5 | 230,000 tested, under 10 active | AID 1467, 2008 | purified enzyme, 4-MU-alpha-Gal fluorescence, pH 4.5 | activity change, negative = inhibition, % at 105 µM | Alpha-galactosidase A (Homo sapiens), P06280; inconclusive = small, poorly fitted or top-dose-only inhibition, or a rising curve; inactive = flat fitted curve, though single readings scatter; no compound was filed as active;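 further: 0% = full activity with enzyme and -100% = basal without enzyme; dose as in the result columns while the protocol names 77 µM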
Rango release inh: qHTS Assay for Inhibitors of RanGTP induced Rango (Ran-regulated importin-beta cargo) - Importin beta complex dissociation; Snurportin-1 (Homo sapiens) + GTP-binding nuclear protein Ran (Homo sapiens) + Importin …; Biochemical FRET Rango-importin beta, RanGTP-induced dissociation; Potency, µM (top dose mostly 46.1 µM), inactives show at the top dose activity change, negative = inhibition; hit rate 0.071% among 340,000; AID 540253, 2011; active means falling FRET ratio curve, often poorly fitted, with flat reads before Ran was added; inconclusive means other falling curves, or compound fluorescence or quenching; inactive means flat or rising ratio curve;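 further: potency means the concentration at half of the fitted maximal effect; % of control where 0% means no effect; nearly all actives have a fitted effect of over 45% in size; -100% = wells without RanGTP and RCC1; the record marks most hits as doubtful in a second field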
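Rango/importin beta premix (0.1/0.25 uM final), PBS + 1 mM DTT + 0.02% Tween-20 + 0.1% BSA; cpd 5 min RT; FRET pre-read; + RanGTP-RCC1 (0.6 uM Ran, 2 mM GTP, 0.2 uM RCC1); 45 min RT; FRET post-read, ex 430, em 486/530 nm.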
Rango-impB inh: qHTS Assay for Inhibitors of Rango (Ran-regulated importin-beta cargo) - Importin beta complex formation; Potency, µM (doses to about 92.2 µM), without a hit: at the top dose inhibition of complex formation; Importin subunit beta-1 (Homo sapiens), Q14974; hit rate 0.031% among 340,000; Rango CFP/YFP FRET sensor + importin beta, 45 min; AID 540263, 2011; active = rising FRET ratio curve, often small or poorly fitted; inconclusive = mostly compound fluorescence or quenching in the first reads; inactive = flat curves in all reads;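 further: potency means the concentration at half of the fitted maximal effect; 0% = DMSO wells and 100% = buffer wells lacking importin beta; nearly all actives have a fitted effect of over 15% in size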
Target sequence (Q14974 whole entry, looked up): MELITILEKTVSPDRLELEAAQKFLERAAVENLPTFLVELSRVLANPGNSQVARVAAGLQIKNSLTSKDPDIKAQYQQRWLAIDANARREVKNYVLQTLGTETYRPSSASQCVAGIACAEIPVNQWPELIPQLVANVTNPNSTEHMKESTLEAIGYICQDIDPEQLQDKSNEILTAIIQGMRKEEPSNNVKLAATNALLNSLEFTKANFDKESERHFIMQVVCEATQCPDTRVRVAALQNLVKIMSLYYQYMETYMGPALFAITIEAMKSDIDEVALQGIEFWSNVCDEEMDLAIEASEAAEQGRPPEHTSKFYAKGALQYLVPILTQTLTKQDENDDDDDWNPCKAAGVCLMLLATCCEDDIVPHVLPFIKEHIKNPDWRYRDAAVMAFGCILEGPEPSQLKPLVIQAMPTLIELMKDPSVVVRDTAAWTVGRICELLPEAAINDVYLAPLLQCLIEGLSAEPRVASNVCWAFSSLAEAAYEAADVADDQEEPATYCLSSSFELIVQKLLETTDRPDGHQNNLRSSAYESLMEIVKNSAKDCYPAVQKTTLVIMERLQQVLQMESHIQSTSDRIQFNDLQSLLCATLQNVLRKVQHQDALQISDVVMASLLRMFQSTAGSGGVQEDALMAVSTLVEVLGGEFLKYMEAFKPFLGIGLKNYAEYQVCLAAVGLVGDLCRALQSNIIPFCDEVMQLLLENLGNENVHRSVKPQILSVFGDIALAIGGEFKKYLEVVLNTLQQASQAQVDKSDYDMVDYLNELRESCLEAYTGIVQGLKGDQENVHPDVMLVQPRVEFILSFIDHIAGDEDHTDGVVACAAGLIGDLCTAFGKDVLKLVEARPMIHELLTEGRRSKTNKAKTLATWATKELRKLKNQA
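FRET biosensor (snurportin 1 IBB flanked by EYFP and cerulean), 50 nM, with compound 5 min, then 0.125 microM importin beta in PBS, 1 mM DTT, 0.02% Tween-20, 0.1% BSA. CFP/YFP ratio read after 45 min at room temperature; pre-read flags interference.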
miR-21 reporter: qHTS Assay for Modulators of miRNAs and/orActivators of miR-21. HeLa miR-21 FLuc reporter, luciferase, 48 h. Potency, µM (titrated, usually from 38.3 µM), without a hit: at the top dose reporter change, positive = more light. 340,000 tested, under 10 active; active = well fitted rising curve with a large enough effect; inconclusive = small, poorly fitted or top-dose-only effect; inactive = no such curve, though single readings can be large or run the other way;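 further: % of control where 0% means no effect; miR-21 action dims this reporter so a rising signal means less miR-21 action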
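HeLa cells stably expressing CMV-driven firefly luciferase with a downstream miR-21 binding sequence, endogenously expressing miR-21, were treated with titrations (up to about 40uM final) for 48 hours at 37 degree Celsius. Luciferase luminescence was read after lysis.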
* = called active by the depositor; ? = inconclusive; / = no result given. A portion of the library; the hit share may differ from the screen's.

SMILES	GLA inh pH 4.5	Rango release inh	Rango-impB inh	miR-21 reporter
COc1ccc(N2CC(C(=O)NCc3cccnc3)CC2=O)cc1 (stereo not drawn)	-14	1%	-0.8%	-1%
CNS(=O)(=O)c1cccc(C(=O)OCc2cc(=O)oc3c(C)c(O)ccc23)c1	/	?	?	11%
Cc1cc(C)n(-c2nc(SCC(=O)N3CCCC3)c3c4c(sc3n2)CCCC4)n1	-6	12%	0.1%	-8%
C#CCn1c(S(=O)(=O)Cc2ccc(C)cc2)nc(-c2ccccc2)c1-c1ccccc1	-10	-14%	-2.0%	17%
CN(C)S(=O)(=O)N1CCC(Oc2ccc(C(=O)NCc3cnn(C)c3)cc2)CC1	2	9%	-4.5%	6%
O=C(O)c1ccc(N/N=C/c2cccc(F)c2)cc1	-3	-11%	?	-35%
O=C(CCNS(=O)(=O)c1ccccc1C(F)(F)F)NCCCN1CCOCC1	/	-12%	4.4%	/
CC(OC(=O)c1ccc(Cl)nc1)C(=O)NC1(C#N)CCCCC1 (stereo not drawn)	/	-7%	1.2%	/
O=C(COC(=O)CCS(=O)(=O)c1ccc(Cl)cc1)NC1CCCCC1	2	-10%	2.6%	4%
Cn1c(CCN2CCCC2)nc2cc(NS(=O)(=O)c3ccc(Cl)cc3)ccc21	/	-4%	2.0%	26%
COc1ccc(N2CCN(C(=O)C(=O)c3c[nH]c4ccccc34)CC2)cc1	/	7%	0.3%	-9%
Cc1ccc(-c2nnc(SCC(=O)NC3CC3)n2N)cc1	5	-15%	1.9%	-3%
COCCN(CCOC)c1nc(-c2ccc([N+](=O)[O-])cc2)nc2ccccc12	/	9%	-1.0%	-5%
O=c1c(Cc2ccc(F)cc2)c(O)ccn1CC1CCCO1 (stereo not drawn)	1	4%	3.2%	-2%
NS(=O)(=O)c1ccc(CNC(=S)Nc2ccc(F)c(Cl)c2)cc1	9	-5%	-0.4%	-2%
COc1cccc(/C=C/C(=O)OCC(=O)NCCC2=CCCCC2)c1	3	3%	-0.1%	-3%
BrC(=C\c1ccccc1)/C=N/N1CCN(Cc2ccccc2)CC1	0	19%	1.2%	-5%
O=C(C[C@H]1C/C=C\C[C@@H](Cc2ccc(F)cc2)C(=O)O[C@H](c2ccccc2)CNC1=O)NCCO	/	-11%	0.8%	/
Cc1cc(C(=O)COC(=O)CNC(=O)c2ccc(Cl)c(Cl)c2)c(C)n1Cc1ccco1	0	-3%	8.5%	-10%
CC(CCc1ccccc1)NC(=O)CNC(=O)COc1ccccc1 (stereo not drawn)	5	10%	0.2%	-3%
COc1cc(S(=O)(=O)Nc2cc(C)cc(C)c2)ccc1F	2	-18%	-5.3%	23%
N#CCSc1nnc(Cc2cccs2)n1C1CCCCC1	1	-8%	1.2%	-5%
C(=N\Nc1nc2ccccc2s1)/c1cccs1	-6	-18%	-4.9%	-14%
Cc1cc(/C=C(\C#N)C(=O)NCCc2c[nH]c3ccccc23)c(C)n1C	-4	-10%	?	-15%
CC(=O)c1ccc2oc3ccccc3c(=O)c2c1	/	10%	-2.2%	-27%

Further compounds
SMILES	GLA inh pH 4.5	Rango release inh	Rango-impB inh	miR-21 reporter
O=[N+]([O-])c1ccc(S(=O)(=O)N2CCN=C2SCc2cccnc2)cc1	2	-10%	?	11%
Cc1cccc(NC(=O)c2cc(-c3cc(C)cc(C)c3O)n[nH]2)c1	/	16%	-0.6%	10%
CCCNC(=O)c1nn2cc(Br)cnc2c1Br	0	-4%	-0.3%	-13%
CCCC(=O)NC(=S)Nc1ccc(NC(=O)C(C)C)c(OC)c1	-7	1%	1.3%	-9%
CCOC(=O)N1CCC(NC(=O)Cn2cccc2C(=O)c2ccccc2)CC1	-3	-17%	1.0%	-4%
COc1c(C)cc(Br)cc1C(=O)Nc1ccc(Cc2ccncc2)cc1	-3	1%	-1.7%	6%
CC1(C)Cc2ccccc2-c2nnc(SCC(=O)N3CCc4ccccc43)n21	-16	-3%	-7.2%	2%
COCCN(C(=O)COC(=O)c1oc2ccc(OC)cc2c1C)c1c(N)n(Cc2ccccc2)c(=O)[nH]c1=O	/	-18%	-4.5%	-4%
O=C(Nc1cccc(F)c1)C1CCCN(S(=O)(=O)c2cnc[nH]2)C1 (stereo not drawn)	/	12%	-0.2%	2%
CC(C)Cn1c2c(c(O)c(C(=O)Nc3nccs3)c1=O)CCCC2	-4	0%	5.3%	-1%
O=C(COC(=O)CN1C(=O)C2CCCCC2C1=O)NNC(=O)c1ccc(Cl)cc1 (stereo not drawn)	/	4%	-5.1%	/
CCOc1ccccc1N(CC(=O)NC1CCCCC1)S(=O)(=O)c1ccc(C)cc1	/	1%	-0.3%	1%
C#CCOCCOCCOCCNc1nc(N2CCN(C(=O)C([C@@H](C)CC)n3cc(C(N)CO)nn3)CC2)nc(N2CCN(C(=O)[C@H](CCC(=O)O)n3cc(C(N)[C@H](C)CC)nn3)CC2)n1 (stereo partly drawn)	0	/	/	2%
Cc1ccccc1/C=C\c1nc2ccccc2c(=O)n1Cc1ccccc1	0	4%	0.2%	-3%
O=C(O)CCN1C(=O)C2C3C=CC(C3)C2C1=O (stereo not drawn)	-7	-18%	0.9%	-7%
C/C(CCN1CCCCc2nc(C)c(C)cc21)=N\O[C@@H](C)c1cn([C@H](CO)Cc2ccccc2)nn1	0	/	/	-1%
O=C(Cc1ccccc1)Nc1c(C(=O)N2CCCCCC2)cnn1-c1ccccc1	-4	?	1.6%	-2%
NC(=O)c1nsc(C(=O)N(c2ccc(F)cc2)C(C(=O)NCC2CCCO2)c2c[nH]c3ccccc23)c1N (stereo not drawn)	/	1%	-3.5%	-5%
Cc1ccccc1NC(=O)CSc1nnc(-c2ccco2)c(-c2ccco2)n1	2	-15%	-2.1%	-4%
CC(C)(C)N1C(=O)c2ccc(C(=O)Nc3ccc(O)cc3)cc2C1=O	/	-4%	-3.2%	-13%
Cc1ccc(-c2nnn(CC(=O)N(Cc3ccco3)C(C(=O)NC(C)(C)C)c3ccncc3)n2)o1 (stereo not drawn)	10	0%	4.9%	-3%
CC1(O)CC(C)(C)C(C#N)C(=O)N1 (stereo not drawn)	/	-3%	0.2%	/
N#C/C(=C\Nc1ccc(Cl)cc1)S(=O)(=O)c1ccccn1	4	2%	3.4%	-2%
COc1ccc(-n2c(N)c(C(=O)NCc3cccnc3)sc2=S)cc1	2	-10%	-0.5%	8%
CCCN1CCN(C(=O)Nc2cccc(C(F)(F)F)c2)CC1	-3	1%	2.0%	-9%

Compounds shown so far that contain a thiophene ring, fused or not (3):
SMILES	GLA inh pH 4.5	Rango release inh	Rango-impB inh	miR-21 reporter
Cc1cc(C)n(-c2nc(SCC(=O)N3CCCC3)c3c4c(sc3n2)CCCC4)n1	-6	12%	0.1%	-8%
N#CCSc1nnc(Cc2cccs2)n1C1CCCCC1	1	-8%	1.2%	-5%
C(=N\Nc1nc2ccccc2s1)/c1cccs1	-6	-18%	-4.9%	-14%

Next part.
SMILES	GLA inh pH 4.5	Rango release inh	Rango-impB inh	miR-21 reporter
O=C(Oc1cccc(NC(=O)c2cccs2)c1)c1cccc(S(=O)(=O)N2CCCC2)c1	-3	22%	2.7%	-23%
O=C(COc1ccccc1)Nc1ccccc1C(=O)NCc1ccco1	-2	-20%	1.0%	-47%
COc1ccc(-n2c(N3CCN(C)CC3)nc3sc4c(c3c2=O)CCCCC4)cc1	1	0%	-5.0%	-40%
O=c1[nH]c2cc3c(cc2cc1CN(CCN1CCOCC1)C(=S)NCC1CCCO1)OCO3 (stereo not drawn)	9	6%	-5.2%	2%
O=C(c1ccccc1)c1ccc(OCC(O)CNC2CCCc3ccccc32)cc1 (stereo not drawn)	-11	-7%	-0.9%	15%
COc1ccc(C2C(C#N)=C(N)Oc3c2c(C)nn3-c2ccccc2)cc1Cn1nc(C)c([N+](=O)[O-])c1C (stereo not drawn)	-21	-11%	-0.1%	-7%
O=C(COc1ccc(Br)cc1)NCCNC(=O)c1cccnc1	/	-12%	5.3%	0%
O=C(c1cc2nc(C3CC3)cc(C(F)(F)F)n2n1)N1CCCC1	13	-7%	6.4%	-29%
COc1ccccc1N1CCN(C(=O)c2ccc(NC(C)=O)cc2)CC1	-1	4%	0.0%	-8%
CCCCN1CN=C(Nc2nc3ccccc3o2)NC1	-5	-11%	0.1%	-52%
CCC(=O)NC(NC(=O)CC)C(Cl)Cl	1	-7%	-3.5%	-4%
CCOC(=O)Cn1cc(/C=C/[N+](=O)[O-])c2ccccc21	6	1%	3.8%	?
CCOC(=O)N[C@H](Cc1c[nH]c2ccccc12)C(=O)NC1CC1	-3	-8%	-0.5%	0%
COc1ccccc1C(=O)NCCC(=O)NC1CCCCC1C (stereo not drawn)	/	-10%	2.8%	/
COc1cccc(CNc2ccc(F)c(Cl)c2)c1O	1	-6%	-0.1%	-8%
COc1cccc(NC(=O)CN2C(=O)C(=O)N(C3CCCC3)C2=O)c1	/	-7%	1.6%	/
O=C(Cc1coc2cc(O)ccc12)NNC(=O)c1cccs1	/	-14%	-3.5%	/
Cc1ccc(NC(=S)N/N=C2/CCCc3c(C)cc(C)cc32)cc1	-2	-1%	3.8%	1%
COc1ccc(-c2nc(NC(=O)c3nc4nccc(C)n4n3)sc2C)cc1	4	8%	-2.5%	-7%
Cc1ccc2nc(C)cc(C(=O)N3CCCC(CO)(Cc4ccccc4C)C3)c2c1 (stereo not drawn)	-4	0%	0.3%	-6%
CC(=O)c1ccccc1NC(=O)CC1(CC(=O)O)CCCCC1	1	-7%	1.7%	-3%
O=C(CCC(=O)OCC(=O)c1ccc(Cl)cc1Cl)Nc1cccc2cccnc12	-6	-8%	3.9%	-6%
Cc1c(C)c2ccc(OC(C)C(=O)NCc3ccccn3)cc2oc1=O (stereo not drawn)	/	-6%	-0.2%	-5%
COc1ccc(C(=S)N2CCOCC2)cc1OC(=O)c1cc(OC)c(OC)c(OC)c1	/	3%	-0.3%	0%
CCc1cccc(C)c1NS(=O)(=O)c1cccs1	/	-1%	?	-3%

Part of the list above, with values ahead of the structure.
GLA inh pH 4.5	Rango release inh	Rango-impB inh	miR-21 reporter	structure
/	-10%	2.8%	/	COc1ccccc1C(=O)NCCC(=O)NC1CCCCC1C (stereo not drawn)
9	-5%	-0.4%	-2%	NS(=O)(=O)c1ccc(CNC(=S)Nc2ccc(F)c(Cl)c2)cc1
0	/	/	-1%	C/C(CCN1CCCCc2nc(C)c(C)cc21)=N\O[C@@H](C)c1cn([C@H](CO)Cc2ccccc2)nn1

The listing continues.
SMILES	GLA inh pH 4.5	Rango release inh	Rango-impB inh	miR-21 reporter
CCOC(=O)c1c(NC(=O)CSc2nnc(-c3ccccc3)o2)sc(C(C)=O)c1C	-1	-8%	?	-1%
COc1ccc2nc3c(cc2c1)c(NC(=O)C1CCCO1)nn3CC(C)C (stereo not drawn)	-14	?	?	1%
Cc1ccc(OCCn2c(SCCO)nc3c(N)ncnc32)cc1	/	-1%	-0.8%	-7%
COC(=O)c1c(NC(=O)CC2Nc3ccccc3NC2=O)sc(C)c1C (stereo not drawn)	3	-16%	?	-16%
CC(Sc1nnc2n1CCCCC2)C(=O)Nc1ccc(S(N)(=O)=O)cc1 (stereo not drawn)	/	-6%	-0.2%	/
CCCC(=O)C1=C(O)C(C(=O)OC)C(C)(C)CC1=Nc1ccc(Br)cc1 (stereo not drawn)	-10	13%	1.2%	11%
CCOC(=O)/C(C(=Nc1ccccc1)Nc1ccccc1)=C(\C)O	/	16%	0.2%	5%
CCOc1cc(CNc2ccccc2)cc(Br)c1OCC(=O)NC(C)(C)C	-4	1%	-3.4%	15%
O=C(N1CCNCC1)N1CCOCC1	-1	/	/	0%
COc1cc2c(cc1OC)CN(Cc1ccc(OC)c(C)c1OC)CC2	-3	-16%	-0.8%	2%
Cc1ccc(C(=O)Cn2nnc(-c3ccccc3-n3cnnn3)n2)cc1	0	1%	-0.3%	-1%
O=C1NCCN/C1=C\C(=O)c1ccccc1	-10	-3%	-3.5%	-33%

Screens (PubChem)
